VDR inh – inhibitors of human vitamin D receptor | VDR-SRC2-3 peptide fluorescence polarization, 2 h | P11473 | 0.93% of 400,000 active | Potency, µM, for the others: max response, negative = inhibition, actives largely listed as inhibitors; active means well fitted inhibition curve with a large enough effect; inconclusive means small, poorly fitted or top-dose-only effect, or another doubt; inactive means no such curve, though single readings can be large or run the other way; further: series mostly up to about 120 µM
Target sequence (P11473 whole entry, looked up): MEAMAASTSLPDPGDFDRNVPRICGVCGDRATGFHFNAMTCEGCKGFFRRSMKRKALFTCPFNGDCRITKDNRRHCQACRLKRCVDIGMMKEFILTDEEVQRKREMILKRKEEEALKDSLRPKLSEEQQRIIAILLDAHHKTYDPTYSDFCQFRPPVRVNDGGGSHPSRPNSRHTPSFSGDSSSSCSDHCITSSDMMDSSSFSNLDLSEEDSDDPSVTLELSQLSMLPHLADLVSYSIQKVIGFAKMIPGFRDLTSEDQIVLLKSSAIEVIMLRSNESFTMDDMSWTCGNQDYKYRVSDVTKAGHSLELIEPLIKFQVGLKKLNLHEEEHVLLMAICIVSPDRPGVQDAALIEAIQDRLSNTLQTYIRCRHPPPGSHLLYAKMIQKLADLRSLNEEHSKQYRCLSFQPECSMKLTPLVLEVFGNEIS
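Measured by FP: displacement of SRC2-3 coactivator peptide from VDR by library compounds, following a two-hour ambient incubation.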
* hit, by the source's call; ? = inconclusive; & = joins results of further samples. On the % scale 0 is the no-effect control and ±100 the full control effect; potency means the concentration at half of the fitted maximal effect. Not all compounds are listed; the hit share may differ from the screen's.

Compound | VDR inh
OC(c1ccccc1)c1cccnc1 (stereo not drawn) | -14.0%
Cc1ccc(Nc2c([N+](=O)[O-])c(=O)oc3ccccc23)cc1 | -6.8%
CC(C)NC(=O)c1cc2c(s1)CCCC2 | 16.7%
COc1ccc(CN(C(=O)Nc2cc(C)ccc2C)C2CCN(C(C)=O)CC2)cc1 | -2.6%
S=c1[nH]ncn1/N=C/c1cccc(Oc2ccccc2)c1 | -18.9%
COc1ccc(-c2[nH]nc3oc(=O)c(CCO)c(C)c23)cc1 | 7.9%
COc1cccc(CNC(=O)Cn2c(=O)c3cccn3c3ccccc32)c1 | 3.6%
CS(=O)(=O)Nc1ccccc1Oc1ccccc1 | -6.0%
O=C(NCCC1=CCCCC1)C(=O)NCC1OCCCN1S(=O)(=O)c1ccccc1 (stereo not drawn) | -4.0%
CCOc1cc(C2C3=C(CCCC3=O)N(C)C3=C2C(=O)CCC3)cc(Cl)c1O | -1.1%
Cc1c(C(=O)Nc2ccc(-n3cnnn3)cc2)oc2ccccc12 | -7.4%
CCCSc1nnc2n(-c3cccc(C)c3)c(=O)c3c4c(sc3n12)CCCC4 | -11.3%
Cc1ccnc(NS(=O)(=O)c2ccc(NC(=O)c3ccc(S(=O)(=O)N4CCCC4)cc3)cc2)n1 | ?
O=C(NCC1CCCO1)NC1CCCCC1 (stereo not drawn) | -5.5%
CC(=NNc1ccccc1)C(C)=NNc1ccccc1 | -21.7%
CCOC(=O)c1cnc2ccc(C(=O)OC)cc2c1Nc1ccc2c(c1)OCCO2 | 6.4%
COc1ccc(-n2c(Cn3c(=O)sc4ccccc43)nnc2SCC(N)=O)cc1 | -10.7%
CCCCNC(=O)C1CC(=O)N(CCc2ccc(C)cc2)C1 (stereo not drawn) | -2.7%
CCCCCCNC(=O)c1cccc(-c2ccc(C)c3ccccc23)n1 | -20.3%
Cc1ccc(C(=O)NC(=S)Nc2ccc(-c3cc4ccccc4oc3=O)cc2)c(C)c1 | 8.1%
COc1ccc(CCn2nnnc2C(c2ccc(C)cc2)N2CCN(C)CC2)cc1OC (stereo not drawn) | 24.5%
CC(C)n1nnnc1SCC(=O)NNC(=O)C1CCCCC1 | -7.2%
CCOC(=O)c1cc(-c2ccccc2)n(CC(=O)N(C)c2ccc(OC)cc2)c1C | 15.4%
COC(=O)[C@@]12CCCCN1[C@H](c1ccc(-c3ccc(C(C)=O)cc3)cc1)[C@@H]1C(=O)N(C)C(=O)[C@@H]12 | -11.8%
Cc1cccc(NC(=O)c2cccc(OC(=S)N3CCOCC3)c2)c1C | -3.9%
COc1ccc(CNc2nnnn2C)cc1 | 17.9%
COc1ccc(N2CCN(CCNC(=O)Nc3ccc([N+](=O)[O-])cc3OC)CC2)cc1 | 6.6%
COc1ccc(OC)c(Nc2cc3ccccc3c(=O)[nH]2)c1 | -14.6%
COc1ccc(C2C=C(c3ccccc3)Nc3nc(NC(=O)/C=C/c4ccccc4)nn32)cc1 (stereo not drawn) | 8.2%
COc1cc(CNC2CCCCCC2)cc(OC)c1 | 3.3%
Oc1ccccc1C1C=C(c2ccc3c(c2)OCO3)NC(c2cccc(Br)c2)N1 (stereo not drawn) | ?
CC(Oc1ccc(F)cc1)C(=O)/C=C\N(C)C (stereo not drawn) | -11.2%
CCOC(=O)c1c(S(=O)(=O)N2CCC(C(=O)NCc3ccccc3Cl)CC2)c(C)n(C)c1C | 11.8%
CC(C)=CC(=O)NCc1c(Cl)cccc1-n1cccc1 | -11.3%
COc1ccc2cc3c(N)nn(C(=O)C4CCC(C(C)(C)C)CC4)c3nc2c1 (stereo not drawn) | -18.6%
O=C(C[C@@H]1C/C=C\C[C@@H](Cc2ccc(F)cc2)C(=O)OC[C@@H](Cc2ccccc2)NC1=O)N[C@H](CO)Cc1ccccc1 | -15.9%
CS(=O)(=O)c1ccc(Cl)c(NC(=O)CN2CCN(C(=O)c3cccs3)CC2)c1 | -3.3%
O=C(Cc1ccc(Br)cc1)N(Cc1ccccc1)c1ccccn1 | -8.6%
COc1ccc(NC(=O)COC(=O)[C@@H](NC(=O)c2c(F)cccc2F)C(C)C)cc1 | 0.7%
Cc1ccc(NC(=O)c2ccc(C)cc2)cc1 | 10.1%
COc1ccc(S(=O)(=O)N2CCCCCC2)cc1NC(=O)c1ccccc1S(C)(=O)=O | 0.9%
Cc1cccc(-n2nnc(-c3nc(-c4ccccc4)no3)c2N)c1C | 1.3%
CCOc1ccccc1-n1c(SCC(N)=O)nnc1-c1ccco1 | 13.5%
CCOc1ccc(C(=O)Cc2cc(OC)c(OC)cc2[N+](=O)[O-])cc1 | 7.7%
CCCCNS(=O)(=O)c1ccc2nc(-c3cccnc3)cc(C(=O)NC(C)CC)c2c1 (stereo not drawn) | -15.1%
CCOC(=O)N1CCc2c(sc3c2C(=O)NC(c2cc(OC)c(O)c(OC)c2)N3)C1 (stereo not drawn) | -0.5%
CC1CC(C)CN(C(=O)CCNC(=O)Cn2cnc3ccccc3c2=O)C1 (stereo not drawn) | 2.2%
Cc1c(OC(C)C(=O)NCCCN2CCOCC2)ccc2c3c(c(=O)oc12)CCCC3 (stereo not drawn) | -7.1%
COC(=O)c1ccccc1NC(=O)CSc1nc2ccccc2nc1Cc1ccccc1OC | 16.3%
COc1ccccc1CCc1nnc(CCC(=O)NC(C)Cc2cccnc2)o1 (stereo not drawn) | -8.1%
NS(=O)(=O)c1ccc(Nc2nc(-c3ccccc3)cs2)cc1 | -7.5%
CCOC(=O)C1CCCN(c2ncnc3c2cnn3-c2cccc(C)c2)C1 (stereo not drawn) | 16.7%
O=C(CCc1ccccc1)NN1C(=O)C2C3C=CC(O3)C2C1=O (stereo not drawn) | -24.4%
CCOc1ccc(CNC(=O)C2CCN(S(=O)(=O)c3cn(C)cn3)CC2)cc1OC | 7.0%
O=C(O)c1oc2ccccc2c1CN1CCN(c2ccccc2)CC1 | 7.5%
CCOC(=O)c1ccc(N2C(=O)c3[nH]nc(-c4ccc(OC)cc4)c3C2c2ccc(C)cc2)cc1 (stereo not drawn) | -13.8%
CCOc1ccc(/C=N/OCC(=O)NCc2cccs2)cc1 | -4.2%
COC(=O)c1scc(-c2ccccc2)c1S(=O)(=O)Nc1ccc(C)c(Cl)c1 | 3.7%
CC(C)(C)C(=O)CN1C(=O)NC2(CCOc3ccccc32)C1=O (stereo not drawn) | -4.2%
CCOC(=O)c1ccc(-c2c(C)cc3oc(=O)cc(-c4ccccc4)c3c2C)cc1 | -21.1%&-25.2%

A section from the list above, as a working copy:
Compound | VDR inh
CCCCNS(=O)(=O)c1ccc2nc(-c3cccnc3)cc(C(=O)NC(C)CC)c2c1 (stereo not drawn) | -15.1%
CCOC(=O)N1CCc2c(sc3c2C(=O)NC(c2cc(OC)c(O)c(OC)c2)N3)C1 (stereo not drawn) | -0.5%
CC1CC(C)CN(C(=O)CCNC(=O)Cn2cnc3ccccc3c2=O)C1 (stereo not drawn) | 2.2%

(listing goes on)
Compound | VDR inh
Cc1cccc(N2CCN(S(=O)(=O)c3ccc4oc(=O)c5ncn(C)c5c4c3)CC2C)c1 (stereo not drawn) | 9.6%
CC(C)CNC(=S)NC(=O)c1ccc(Cl)cc1Cl | -1.9%
Cc1ccc(C(=O)NNC(=S)Nc2cccc(Cl)c2Cl)cc1[N+](=O)[O-] | 4.3%
Cc1cc(C)c2c(c1)C1(OCCO1)C(=O)N2 | 0.3%
Cc1ccc(C)c(OCC(=O)NNC(=O)C2CCC2)c1 | -0.9%
Cn1nc(C(=O)NCCOc2ccccc2)c2ccccc2c1=O | -16.1%
Cc1ccc2nc(N(CCCN(C)C)C(=O)COc3ccc(Cl)cc3)sc2c1 | -1.4%
CC1(C2CC2)NC(=O)N(CC(=O)N2CCN(c3cccc(C(F)(F)F)c3)CC2)C1=O (stereo not drawn) | -6.7%
COc1ccc(/C=C\C(=O)O[C@@H]2C(O)C(O[C@@H]3OC(C)[C@H](O[C@@H]4OCC(O[C@H]5O[C@H](CO)[C@@H](O)C(O)C5O)C(O)C4O)C(O)C3O)[C@H](OC(=O)[C@]34CCC(C)(C)C[C@@H]3C3=CCC5[C@@]6(C)CC(O)C(O[C@@H]7OC(CO)C(O)[C@H](O)[C@H]7O)[C@@](C)(C(=O)O)C6CC[C@@]5(C)[C@]3(CO)CC4)O[C@H]2C)cc1 (stereo partly drawn) | -11.5%
CNC(=O)c1ccccc1NC(=O)c1c(O)c2c([nH]c1=O)CCCC2 | 1.7%
Cc1nc2c([N+](=O)[O-])c(C)c(C)cc2[nH]1 | -7.3%
COc1ccc(NC(=O)C2=C(C)NC(=S)NC2c2ccc(O)c(OC)c2)cc1 (stereo not drawn) | -4.7%
C/C(Cl)=C\Cn1c(N2CCCC2)nc2c1c(=O)[nH]c(=O)n2C | -4.6%
CCC(C(=O)NCc1ccc(OC)c(OC)c1)n1nc(C)c2c(C)n(-c3ccc(C)cc3)nc2c1=O (stereo not drawn) | -4.4%
O=S(=O)(c1ccc(SCc2ccccc2F)nc1)N1CCCC1 | 8.9%
O=c1oc2c(CN3CCCCC3)c(O)ccc2c2c1CCCC2 | -19.8%
CC(C)N(Cc1nc(-c2ccccc2)no1)C(=O)c1ccc(Cl)cc1 | 5.2%
O=C(Nc1ccccc1)Nc1ccc(Cl)c(S(=O)(=O)N2CCOCC2)c1 | 9.1%
CCC(C)NC(=O)Cn1c(=O)n(Cc2ccc(C(=O)NCCCOC)cc2)c(=O)c2ccccc21 (stereo not drawn) | -20.2%
c1ccc(-c2cnnn2-c2ccccc2)cc1 | 5.9%
Cc1ccc(S(=O)(=O)N2[C@@H](c3ccccc3)C(C(=O)O)=CC[C@H]2c2cccc(C)c2)cc1 | -15.1%
COC(=O)CSCC(=O)Nc1cc2c(cc1C(C)=O)OCO2 | -8.5%
Cc1ccc2c(c1)C(=C(C#N)C#N)CCN2 | -7.9%
C=CC[C@H](CC(=O)OC(C)(C)C)C(=O)OC[C@H]1CCCN1C(=O)[C@H](CC=C)CC(=O)NCCO | -15.1%
O=C(CN(Cc1ccccc1)S(=O)(=O)c1ccc(F)cc1)NCc1cccnc1 | -6.8%
Cc1cc(C)nc(SCc2csc(N)n2)n1 | -14.3%
NS(=O)(=O)c1ccc(CCNC(=O)CNC(=O)c2ccc(Br)o2)cc1 | -5.3%
COc1ccc(C(NC(=O)c2cccnc2)c2cc(Cl)c3cccnc3c2O)cc1OC (stereo not drawn) | -1.1%
Cn1c(=O)oc2cc(S(=O)(=O)NCCC(=O)N3CCN(c4ccccc4)CC3)ccc21 | 0.8%
COc1ccc(CCNC(=O)c2c(C)oc3nc(C)nc(N4CCOCC4)c23)cc1OC | 13.9%

Four records picked at random from the list so far:
Compound | VDR inh
COc1ccc(CCNC(=O)c2c(C)oc3nc(C)nc(N4CCOCC4)c23)cc1OC | 13.9%
COc1ccc(NC(=O)C2=C(C)NC(=S)NC2c2ccc(O)c(OC)c2)cc1 (stereo not drawn) | -4.7%
Cn1c(=O)oc2cc(S(=O)(=O)NCCC(=O)N3CCN(c4ccccc4)CC3)ccc21 | 0.8%
Cc1ccc(C(=O)NNC(=S)Nc2cccc(Cl)c2Cl)cc1[N+](=O)[O-] | 4.3%

The results go on:
Compound | VDR inh
COc1ccc(S(=O)(=O)NC2CCc3ccccc32)cc1OC (stereo not drawn) | -1.2%
Cc1cc(C)cc(OCC(O)CN2CCN(Cc3ccc4c(c3)OCO4)CC2)c1 (stereo not drawn) | 23.5%
O=C(CN1C(=O)CCc2cc(S(=O)(=O)N3CCOCC3)ccc21)NCc1ccccc1Cl | 2.5%
COc1cc([N+](=O)[O-])ccc1NC(=O)CSc1n[nH]c(C(C)C)n1 | 12.3%
COc1ccc(C(=O)Nc2oc(-c3ccccc3)c(-c3ccccc3)c2C#N)cc1 | 20.6%
Oc1ccc(-c2c(-c3ccsc3)sc3ccccc23)cc1 | -3.6%
CCN(C(=O)COC(=O)c1cc(-c2ccc(C)o2)nc2ccccc12)C1CCS(=O)(=O)C1 (stereo not drawn) | -1.3%
CCC1=NN2C(=N)/C(=C\c3ccc(OCCOc4ccc(NC(C)=O)cc4)cc3)C(=O)N=C2S1 | -5.3%
COc1cccc2c1nc(C)c1cc(C)oc12 | 7.2%
O=C(O)c1ccccc1C(=O)N1CCN(c2ccccc2)CC1 | 0.6%
COCc1nnc(NC(=O)CC(C)C)s1 | 0.6%
COc1ccc2[nH]c(C(=O)N3CCN(Cc4ccccc4)CC3)cc2c1OC | 8.6%
NC(=O)C(CC(=O)O)NC(=O)[C@@H]1CCOc2c(I)cc([N+](=O)[O-])cc2C(=O)N[C@@H](CO)C(=O)N[C@@H](Cc2ccc(O)cc2)C(=O)N1 (stereo partly drawn) | -12.0%
O=C(NCc1ccccc1)C(c1ccco1)N(C(=O)c1cnccn1)c1ccc(F)cc1 (stereo not drawn) | 1.0%
CN(Cc1ccco1)c1ncnc2ccc(-c3ccc4c(ccn4C)c3)cc12 | -18.0%
O=C(Cc1ccccc1)NC(=S)Nc1ccc2oc(-c3ccccc3F)nc2c1 | -1.1%
CCCOP(=O)(c1ccc(N(C)C)cc1)C(O)c1ccc(N(C)C)cc1 (stereo not drawn) | 0.4%
O=C(C1CC(=O)N(c2ccccc2)C1)N1CCC(c2nc3ccccc3[nH]2)CC1 (stereo not drawn) | ?
Cc1ccc(S(=O)(=O)Cn2nnnc2C(C)N2CCN(C(=O)c3ccco3)CC2)cc1 (stereo not drawn) | -6.9%
Cc1[nH]c(=O)[nH]c(=O)c1CSCC(=O)OCC(=O)Nc1ccccn1 | 4.3%
Cc1ccc(Cn2nnc3c(=O)[nH]c(C4CCN(C(=O)Cc5cccs5)CC4)nc32)cc1 | 5.3%

High-throughput results deposited in PubChem by National Center for Advancing Translational Sciences (NCATS).
